# Compound activity from PubChem.
# HPGD block: qHTS Assay for Inhibitors of HPGD (15-Hydroxyprostaglandin Dehydrogenase); AID 894, 2007; hit rate 4.3% among 150,000; Potency, µM, for the others: top-dose activity change, negative = inhibition, actives largely listed as inhibitors; purified HPGD, NADH fluorescence kinetic, PGE2 substrate; active = well fitted inhibition curve with a large enough effect (not every such curve was filed as active); inconclusive = small, poorly fitted or top-dose-only effect, or another doubt; inactive = no such curve, though single readings can be large or run the other way;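 note: top concentration of the series not given in the record; plate controls included wells without enzyme; inactives centre near -10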
# Target sequence (P15428 whole entry, looked up): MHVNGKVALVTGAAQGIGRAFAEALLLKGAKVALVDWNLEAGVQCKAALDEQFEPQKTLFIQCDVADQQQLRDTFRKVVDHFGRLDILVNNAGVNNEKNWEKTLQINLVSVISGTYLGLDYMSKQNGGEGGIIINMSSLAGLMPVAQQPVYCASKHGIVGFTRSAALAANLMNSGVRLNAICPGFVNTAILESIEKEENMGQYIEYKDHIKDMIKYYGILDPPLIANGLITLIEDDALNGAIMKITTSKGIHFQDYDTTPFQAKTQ
#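 20 nM HPGD preincubated 15 min at room temperature with compound in 50 mM Tris-HCl pH 8, 0.01% Tween 20. Started with 1 mM NAD+ and 30 uM prostaglandin E2; NADH fluorescence (360/450 nm) read 5 times over 30-s intervals, last minus first.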
# * marks the source's active call; other numbers are inactive results; u = inconclusive. % is set by controls: 0 for no effect and ±100 for the full control effect; potency is the fitted concentration of half-maximal effect. A portion of the library; count on the stated rates, not on these rows.
canonical_smiles	HPGD block
CO/N=C\CC(=O)Nc1ccc(F)cc1	-9%
CC1(OC(=O)C2CCCC2)C(=O)C=C2C=C(c3ccsc3)N(CCc3c[nH]c4ccccc34)C=C2C1=O (centres undefined)	-9%
O=C(CN1CCOCC1)Nc1ccc(OCc2ccccc2)cc1	-15%
O=C(Nc1ccc(-c2cn3ccccc3n2)cc1)c1cc(Br)ccc1O	-3%
O=P(O)(O)CP(=O)(O)O	-6%
O=C(COc1ccc([N+](=O)[O-])cc1)N/N=C/c1ccccn1	3%
COC(=O)c1ccc(CSc2nnc3c(Cl)cc(Cl)cn23)o1	-6%
CCC(CC)c1nnc(NC(=O)CN2C(=O)C3C4C=CC(C4)C3C2=O)s1 (centres undefined)	0%
COCc1c(C)cc(C)c(/C=N/O)c1C	14µM*
CCOC(=O)c1c(-c2ccc(OC)cc2)csc1NC(=O)CCN1C(=O)c2ccccc2C1=O	28µM*
COCCCn1c(-c2ccco2)nc2ccccc2c1=O	-3%
O=c1c2ccccc2nc(N/N=C/c2c(O)ccc3ccccc23)n1O	22µM*
CC(=O)Oc1c(/C=C(\C#N)C(N)=O)[nH]c2ccccc12	u
NNC(=O)CNC(=O)c1cccc(Br)c1	-3%
CCOC(=O)N1CCN(S(=O)(=O)c2ccc(C)c(C)c2)CC1	-2%
O=C(c1cc2ccccc2oc1=O)N1CCN(c2ncccn2)CC1	-12%
O=C(CSCc1nc2ccccc2[nH]1)N1CCN(c2ccc(F)cc2)CC1	-11%
CN(C)C(=S)Nn1c(-c2ccccc2)nc2ccccc2c1=O	-1%
O=c1[nH]c(Cl)nc2c1ncn2C1OC(CO)C(O)C1O (centres undefined)	u
Cc1ccc(CNC(=O)c2ccccc2NS(C)(=O)=O)cc1	u

# Sorted by molecular weight (low to high): 4 of the compounds above
canonical_smiles	HPGD block
COCc1c(C)cc(C)c(/C=N/O)c1C	14µM*
O=c1[nH]c(Cl)nc2c1ncn2C1OC(CO)C(O)C1O (centres undefined)	u
O=c1c2ccccc2nc(N/N=C/c2c(O)ccc3ccccc23)n1O	22µM*
COC(=O)c1ccc(CSc2nnc3c(Cl)cc(Cl)cn23)o1	-6%

# Next results.
canonical_smiles	HPGD block
O=C(Cn1cncn1)N/N=C/c1ccc(Cl)cc1	-6%
CC1CCCN(c2nc(-c3cccnc3)nc3scc(-c4ccccc4)c23)C1 (centres undefined)	-20%
COc1ccc(N2C(N)=NC(N)=NC2(C)C)cc1	-14%
CC(=O)Nc1sc2c(c1C(c1cccs1)N1CCOCC1)CCCC2 (centres undefined)	-4%
CCOc1cc(N2CCOCC2)c(OCC)cc1NC(=O)COc1ncnc2ccccc12	-10%
CCOC(=O)C1C(=O)N(C(=O)c2ccc(OC)cc2)CC1c1ccccc1 (centres undefined)	-8%
CC1CCCN(C2=NC(=O)/C(=C/c3cn(-c4ccccc4)nc3-c3cccc(S(=O)(=O)N(C)C)c3)S2)C1 (centres undefined)	u
CN(C)S(=O)(=O)c1cccc(C(=O)Nc2ccccc2Cl)c1	-6%
Nc1c(C(=O)Nc2ccc(Cl)cc2)oc2ccccc12	u
c1csc(-c2ncc3ccccn23)c1	-28%
CC1=CC2C(C(C)C)CCC(C)(O)C2CC1 (centres undefined)	-11%
C/C(=N\NC(=O)COc1cc(C)cc(C)c1)c1ccc(N2CCOCC2)cc1	-25%
NC(N)=N/N=C/c1ccccc1	-8%
Cc1ccc(C(=O)OCC(=O)Nc2ccccc2C(F)(F)F)cc1S(=O)(=O)N1CCOCC1	-19%
Cn1c(=O)[nH]c(=O)c2c1nc(N1CCCCCC1)n2CCCSc1nnnn1-c1ccccc1	-28%
CCc1cc2c(c(CC)n1)CCC(=O)N2Cc1ccc(-c2ccccc2-c2nn[nH]n2)cc1	-6%
Cc1c(Br)cccc1NC(=O)c1sccc1-n1cccc1	-16%
CC(NC(=O)c1cccs1)C(=O)NC1=NCCS1 (centres undefined)	-21%
CCOc1cccc2cc(-c3csc(NC(=O)CCC(=O)N4CCC(C)CC4)n3)c(=O)oc12	u
COCCNC(=O)CN(C(=O)CCC(=O)Nc1nccs1)c1ccccc1OC	-8%

# (more compounds)
canonical_smiles	HPGD block
CN1c2ccccc2-c2nc3ccccc3n2C1c1ccccn1 (centres undefined)	u
COc1ccccc1CN1CCC2(CC1)CCN(C(=O)c1c(C)noc1C)CC2	-1%
c1ccc(CCNc2nnnn2-c2ccccc2)cc1	-15%
O=C(COC(=O)c1c(Cl)cccc1Cl)Nc1cc(Cl)ccc1Oc1ccccc1	-17%
O=C(CCc1ccc(S(=O)(=O)N2CCOCC2)cc1)Nc1nccs1	-7%
C=CCN(Cc1cccc(OC)c1OC)S(=O)(=O)N(C)C	-14%
Cc1ccc(NC(=O)CS(=O)CC(=O)NCC2CCCO2)cc1 (centres undefined)	-9%
COCCn1c(-c2ccc(Cl)cc2)nc2c(c(=O)c3ccccc3n2C)c1=O	-9%
Cn1ncc(N=Cc2ccccc2)c1C(N)=O	-14%
COc1cccc(-n2c(SCC(=O)NCc3cccs3)nc3ccccc3c2=O)c1	-21%
CC(C)N1CC(C(=O)Nc2nc3ccccc3s2)CC1=O (centres undefined)	-4%
CCOc1ccc(-c2ccc(/C=C3/C(=N)N4C=CSC4=NC3=O)o2)c([N+](=O)[O-])c1	u
Cc1ccc(-c2nc3ccccc3c(=O)n2CCCn2ccnc2)cc1	-7%
COc1ccc(NC(=O)c2ccc(-n3cccn3)nc2)c(OC)c1	-12%
COc1ccc(NS(=O)(=O)c2cccc(NC(=O)c3ccc(S(=O)(=O)N4CCCCCC4)cc3)c2)cc1	-13%
O=C(NC(=S)NCCSc1ccccc1)c1cccnc1	-14%
COc1ccc(N2CCN(C(=O)CCCn3c(=O)[nH]c4ccsc4c3=O)CC2)cc1	-7%
Cc1ccc(S(=O)(=O)Nc2c3ccccc3nc(=O)n2-c2ccccc2)cc1	-13%
C=CCNS(=O)(=O)c1ccc(OCC(=O)OC)cc1	-6%
COc1ccc(C(=O)c2coc3ccc(O)cc23)cc1	-9%

# (listing goes on)
canonical_smiles	HPGD block
COc1ccc(S(=O)(=O)N2Cc3ccccc3CC2C(=O)N2CCOCC2)cc1OC (centres undefined)	-5%
CC(=O)N1C(=O)N(C(C)=O)C2C1N(C(C)=O)C(=O)N2C(C)=O (centres undefined)	-7%
N[C@@H](C(=O)O)[C@H](CC(=O)O)c1ccc(Cl)cc1	-6%
Cc1cccc(OCc2nnc3n2CCCCC3)c1	-19%
O=C(Nc1c(F)cc(F)cc1Br)c1cc(-c2ccco2)on1	-10%
CCOc1cc(/C=N\NC(=O)CN2CCOCC2)ccc1OCc1ccc(F)cc1	-11%
COc1cccc(/C=N/NC(=O)c2cc(C34CC5CC(CC(C5)C3)C4)[nH]n2)c1	-9%
Cc1ccc(-c2nnc(-c3ccccc3S(=O)(=O)Cc3ccc(Cl)cc3)o2)cc1	u
COC(=O)c1sccc1NC(=O)c1cccc(OC)c1	-15%
O=C(CSc1nnc(-c2ccc(Br)cc2)o1)Nc1cccc2ccccc12	1%
O=C(NCCNC1CCN(Cc2ccccc2)CC1)c1cccs1	-4%
CC(=O)N(Cc1cccnc1)Cc1cc2ccccc2[nH]c1=O	-26%
CCOC(=O)C1CCN(C(=O)c2cccnc2Cl)CC1	-2%
O=C(Nc1ccc(Cl)cc1C(=O)NCC1CCCO1)c1ccc(Cl)cc1Cl (centres undefined)	-1%
Cc1cc(O)c(/C=N/Nc2cccc(Cl)c2)c(=O)o1	-12%
Nc1nc2c(c(=O)[nH]1)CN(CCCN1CCOCC1)CN2	-11%
CN(C)S(=O)(=O)N1CCN(c2ccccc2Cl)CC1	-1%
COc1ccc(C(F)(F)F)cc1N/C=C\c1nnnn1-c1ccc(C)cc1	u
O=C(c1noc2c1CCc1ccccc1-2)N1CCOCC1	-23%
CCn1c(-c2ccc3ncccc3c2)n[nH]c1=S	-17%

# More compounds
Compound | HPGD block
COCc1nnc(NC(=O)CCN2C(=O)c3ccccc3C2=O)s1 | -5%
CCOC(=O)CSc1nnc(NCC(=O)OC)c(=O)[nH]1 | -12%
CCCC(=O)Nc1nc2ccc(S(N)(=O)=O)cc2s1 | -7%
COc1ccccc1CNC(=O)COC(=O)c1cc(-c2ccco2)nc2ccccc12 | u
CC1=C(C(=O)Nc2ccccc2)C(c2ccc(C)o2)n2c(s/c(=C/c3ccccc3)c2=O)=N1 (centres undefined) | -14%
Cc1c(O)ccc(C(=O)CN2C(=O)c3ccccc3C2=O)c1O | -22%
NCC1O[C@@H](OC2C(N)CC(N)C(O)C2O[C@@H]2OC(CO)C(O)C2O)C(N)C(O)C1O (some centres undefined) | -4%
CN1CCN(Cc2nc3c(c(=O)[nH]c(=O)n3C)n2Cc2c(F)cccc2Cl)CC1 | -6%
CC1(C)CC(=O)C(C=NCC2CCN(C(=O)Nc3ccccc3)CC2)=C(O)C1 | -12%
Cc1cccc(-n2cnc(C(=O)NC3CCCCCC3)c2)n1 | -22%

# (further entries)
Compound | HPGD block
CCCCc1c(O)nc(SCCC(=O)O)[nH]c1=O | -6%
CCCCN1C(=O)NC(NC(=O)c2ccco2)(C(F)(F)F)C1=O (centres undefined) | -10%
CC(=O)C1C(c2ccccc2)c2c(n[nH]c2C)CC1(C)O (centres undefined) | -5%
O=C1/C(=C/c2ccncc2)SC(=S)N1C1CCS(=O)(=O)C1 (centres undefined) | -24%
CCCCCCC1CCC(C(=O)NC(CCSC)C(=O)NC(C(=O)OC)C(C)C)CC1 (centres undefined) | -16%
CCOCCCn1c(=S)[nH]c2cc(C(=O)N3CCC(C(N)=O)CC3)ccc2c1=O | -17%
CC1=C(C)CC(C(=O)Nc2cccc([N+](=O)[O-])c2)C(C(=O)O)C1 (centres undefined) | -5%
COc1ccc(NC(=O)CSc2ccccc2)c(OC)c1 | -28%
Cc1noc(C)c1S(=O)(=O)N1CCC(C(=O)Nc2ccccn2)CC1 | -6%
CC(C)CC(=O)Nc1c2c(nn1-c1ccc(F)cc1)CSC2 | 3%

# The list goes on.
Compound | HPGD block
O=C(O)CCN1C(=O)c2ccccc2C1=O | -12%
CCCN1CCC(NC(=O)Nc2ccc(OC)c(OC)c2)CC1 | 6%
CCc1ccc(-c2nc(CN3CCC(C(=O)NCCc4ccc(OC)c(OC)c4)CC3)c(C)o2)cc1 | -1%
Cn1c(Cl)nc2c1c(=O)n(Cc1cccc(Br)c1)c(=O)n2C | u
COC(=O)c1cc(OC)c(OC)cc1-n1cnc2cc(OC)c(OC)cc2c1=O | -13%
COc1ccccc1C1=NN(C(=S)Nc2ccccc2)C(c2ccco2)C1 (centres undefined) | -11%
CCN(c1cccc(C(F)(F)F)c1)S(=O)(=O)c1ccc2c(c1)CCN2C(C)=O | -1%
COCCN(C(=O)Nc1ccc(OC)cc1OC)C1CCN(C(C)=O)CC1 | -10%
COc1cccc(-n2c(SCC(=O)OC(C)C)nnc2-c2cccnc2)c1 | 22µM*
COc1ccc(/C=C/C(=O)c2ccccc2)cc1Cn1nnc2ccccc21 | 16µM*

# Next records.
Compound | HPGD block
Cc1nn(C)cc1/C=N/NC(=S)Nc1ccccc1 | 28µM*
CCSc1nn2c(=O)c3ccccc3nc2s1 | -20%
CCOC(=O)c1sc(N(Cc2ccccc2)C(=O)COC(=O)c2ccc(O)cc2)nc1C | u
Fc1ccc(Nc2nc(Oc3ccccc3F)nc(N3CCCC3)n2)cc1 | u
CCc1nc2c(sc3nc4c(cc32)COC(C)(C)C4)c(=O)n1Cc1ccccc1 | u
O=C(NC(=S)Nc1ccc(Cl)cn1)C(c1ccccc1)c1ccccc1 | -16%
O=C(NCc1ccco1)c1cc(-c2ccc3c(c2)OCO3)on1 | 14%
Cc1ccc(C(=O)CC2(O)C(=O)N(C)c3ccccc32)o1 (centres undefined) | -27%
O=C(C1CCC1)N1CCc2cc(S(=O)(=O)NCC3COc4ccccc4O3)ccc21 (centres undefined) | -23%
O=C(CCNC(=O)c1ccccc1)Oc1ccc([N+](=O)[O-])cc1 | -9%

# Reprinted at random: 3 compounds from above
Compound | HPGD block
COc1ccccc1CN1CCC2(CC1)CCN(C(=O)c1c(C)noc1C)CC2 | -1%
CCOC(=O)C1CCN(C(=O)c2cccnc2Cl)CC1 | -2%
CCn1c(-c2ccc3ncccc3c2)n[nH]c1=S | -17%

# Some of the entries so far, as labelled records:
> Fc1ccc(Nc2nc(Oc3ccccc3F)nc(N3CCCC3)n2)cc1
  HPGD block = u
> CCc1nc2c(sc3nc4c(cc32)COC(C)(C)C4)c(=O)n1Cc1ccccc1
  HPGD block = u
> O=C(NC(=S)Nc1ccc(Cl)cn1)C(c1ccccc1)c1ccccc1
  HPGD block = -16%

# Next section:
Compound | HPGD block
NS(=O)(=O)c1ccc(NC=C2C(=O)OC3(CCCCC3)OC2=O)cc1 | 35µM*
Clc1ccc(CNC2CCCC2)cc1 | -1%
COC(=O)c1ccc(S(=O)(=O)N2C3CCC2CC(NC(=O)C2CC2)C3)cc1 (centres undefined) | -8%
Cc1cccc(NC(=S)NNC(=O)CC(C)O)c1C (centres undefined) | 6%
COC(=O)c1scc(C)c1NC(=O)Nc1ccccc1 | -9%
O=C(O)C1CC=CCC1C(=O)N1CCN(c2nc(-c3ccccc3)c3ccccc3n2)CC1 (centres undefined) | u
CC(=O)N1CCN(C)CC1 | -12%
CCc1cccc(C)c1N(C(=O)Cn1c(CO)nc2ccccc21)C(C)COC (centres undefined) | -8%
COc1ccc(C)cc1-n1c(N)c(C#N)c(C#N)c1-c1ccc(OC)c(OC)c1OC | u
C[C@H](NC(=O)N1CCc2nc(COc3ccccc3)c3c(c2C1)CO[C@@H](C)C3)c1ccccc1 | -11%
O=[N+]([O-])c1ccc(C=Nc2ccc(Cl)cc2Cl)s1 | -7%
C#CCOc1nc(OCC#C)nc(OCC#C)n1 | 0%
O=C(O)CN(c1ccc(F)cc1)S(=O)(=O)c1ccc2c(c1)OCCO2 | -4%
